Vaccinia Venus – vaccinia inhibition (Venus reporter). AID 720580. actives 0.46% (n = 330,000). Vaccinia virus Venus reporter expression, fluorescence. Potency, µM (titrated, usually from 36.5 µM), inactives show at the top dose activity change, negative = inhibition, most hits filed as inhibitors; active means well fitted inhibition curve with a large enough effect; inconclusive means small, poorly fitted or top-dose-only effect; inactive means no such curve, though single readings can be large or run the other way; tested in A549 cells; note: nearly all actives have a fitted effect of over 30% in size; inactives centre near -10
Vaccinia mCherry – vaccinia inhibition (mCherry reporter); Vaccinia virus mCherry reporter infection, fluorescence; about a quarter of the inactives have no number; Potency, µM (doses to about 36.5 µM), for inactives: at the highest dose activity change, negative = inhibition, usual class: inhibitors; actives 0.63% (n = 310,000); AID 720579; active = well fitted inhibition curve with a large enough effect; inconclusive = small, poorly fitted or top-dose-only effect; inactive = no such curve, though single readings can be large or run the other way; tested in A549 cells; note: nearly all actives have a fitted effect of over 35% in size; inactives centre near -10
* marks the source's active call; other numbers are inactive results; i = inactive; ? = inconclusive; . = no result given; & = joins results of further samples; [ ] = another dose, or the depositor's remark. % is set by controls: 0 for no effect and ±100 for the full control effect; potency is the fitted concentration of half-maximal effect.

SMILES | Vaccinia Venus | Vaccinia mCherry
COc1ccc(-c2cc(CNC(=O)CCl)on2)cc1 | 8.9µM* | .
O=c1c2cnn(-c3ccc(Cl)cc3)c2ncn1Cc1cccc(C(F)(F)F)c1 | -8% | -3%
O=C(CN1CCN(c2ncccn2)CC1)NCCC1=CCCCC1 | -10% | -24%
O=c1c2ccccc2c(-c2ccc(Br)cc2)nn1Cc1ccccc1 | -9% | -10%[1.46 µM]
CCCC(=O)Nc1cc2nn(-c3ccccc3)nc2cc1C | 0% | -8%
COc1ccccc1-c1noc2c1C(=O)N(Cc1cn(Cc3ccccc3)nn1)CC2 | 9% | -10%
CNS(=O)(=O)c1ccc(N=Cc2c(O)n(-c3ccccc3)c(=O)[nH]c2=O)cc1 | -20% | -23%
CCn1ncc(NC(=S)NCCc2ccc(OC)c(OC)c2)c1C(N)=O | -2% | -1%
O=C(c1ccc(F)cc1)N1CCC(C(=O)N2CCN(Cc3ccc4c(c3)OCO4)CC2)CC1 | -20% | i
O=c1ccsc2ccccc12 | -14% | -14%
Cc1ccc(N(CC(=O)NCCSc2nc3ccccc3s2)S(=O)(=O)c2ccccc2)c(C)c1 | ? | ?
CCOC(=O)C1CCCN(S(=O)(=O)c2ccc3c(c2)CC(C)N3C(=O)C2CC2)C1 (stereo not drawn) | -6% | -13%
O=C(Oc1ccccc1)Oc1ccc2c(c1)oc(=O)c1ccccc12 | -5% | -13%
O=C1CC(NS(=O)(=O)c2cc(F)ccc2F)CN1c1cccc(F)c1 (stereo not drawn) | -11% | i
COC(=O)C1CCN(C(c2cccs2)c2sc3nc(C)nn3c2O)CC1 (stereo not drawn) | -9% | -1%
CC(CCc1ccccc1)NC(=O)C(Cc1ccccc1)NC(N)=O (stereo not drawn) | -1% | ?
O=S1(=O)C=C[C@@H](CO)N1Cc1ccc(Br)cc1 | 1% | 18%
COC(=O)c1cc2sc(C)cc2n1CC(=O)Nc1ccc(C)c(C)c1 | -15% | -21%
Cc1ccc(Cl)cc1NC(=O)Cn1c(SCC(=O)NCc2ccccc2)nc2ccccc21 | -1% | -14%
Cc1cccc(NC(=O)CCNS(=O)(=O)c2cccc3nonc23)c1 | -12%&-1% | -2%
C/C=C1/C[N@@+]2(C)CC[C@]34C(=C(C=O)[C@H]1C[C@H]32)Nc1ccccc14 | -10% | -8%
Cc1ccccc1CCNC(=O)c1ccc(Cn2c(=O)c3cccn3c3cccnc32)cc1 | -26% | ?
O=C(NCCc1ccccc1)c1ccc2nc(N3CCCCC3)sc2c1 | -8% | -13%
Cc1ccccc1CSc1nccn1-c1ccccc1 | -25% | .
CCOC(=O)c1cc2sc(C)cc2n1CC(=O)NCCc1ccccc1 | -11% | ?

A stretch from further up:
SMILES | Vaccinia Venus | Vaccinia mCherry
COc1ccc(-c2cc(CNC(=O)CCl)on2)cc1 | 8.9µM* | .
O=c1c2cnn(-c3ccc(Cl)cc3)c2ncn1Cc1cccc(C(F)(F)F)c1 | -8% | -3%
O=C(CN1CCN(c2ncccn2)CC1)NCCC1=CCCCC1 | -10% | -24%
O=c1c2ccccc2c(-c2ccc(Br)cc2)nn1Cc1ccccc1 | -9% | -10%[1.46 µM]
CCCC(=O)Nc1cc2nn(-c3ccccc3)nc2cc1C | 0% | -8%
COc1ccccc1-c1noc2c1C(=O)N(Cc1cn(Cc3ccccc3)nn1)CC2 | 9% | -10%
CNS(=O)(=O)c1ccc(N=Cc2c(O)n(-c3ccccc3)c(=O)[nH]c2=O)cc1 | -20% | -23%
CCn1ncc(NC(=S)NCCc2ccc(OC)c(OC)c2)c1C(N)=O | -2% | -1%
O=C(c1ccc(F)cc1)N1CCC(C(=O)N2CCN(Cc3ccc4c(c3)OCO4)CC2)CC1 | -20% | i
O=c1ccsc2ccccc12 | -14% | -14%
Cc1ccc(N(CC(=O)NCCSc2nc3ccccc3s2)S(=O)(=O)c2ccccc2)c(C)c1 | ? | ?
CCOC(=O)C1CCCN(S(=O)(=O)c2ccc3c(c2)CC(C)N3C(=O)C2CC2)C1 (stereo not drawn) | -6% | -13%
O=C(Oc1ccccc1)Oc1ccc2c(c1)oc(=O)c1ccccc12 | -5% | -13%
O=C1CC(NS(=O)(=O)c2cc(F)ccc2F)CN1c1cccc(F)c1 (stereo not drawn) | -11% | i
COC(=O)C1CCN(C(c2cccs2)c2sc3nc(C)nn3c2O)CC1 (stereo not drawn) | -9% | -1%
CC(CCc1ccccc1)NC(=O)C(Cc1ccccc1)NC(N)=O (stereo not drawn) | -1% | ?
O=S1(=O)C=C[C@@H](CO)N1Cc1ccc(Br)cc1 | 1% | 18%
COC(=O)c1cc2sc(C)cc2n1CC(=O)Nc1ccc(C)c(C)c1 | -15% | -21%
Cc1ccc(Cl)cc1NC(=O)Cn1c(SCC(=O)NCc2ccccc2)nc2ccccc21 | -1% | -14%
Cc1cccc(NC(=O)CCNS(=O)(=O)c2cccc3nonc23)c1 | -12%&-1% | -2%
C/C=C1/C[N@@+]2(C)CC[C@]34C(=C(C=O)[C@H]1C[C@H]32)Nc1ccccc14 | -10% | -8%
Cc1ccccc1CCNC(=O)c1ccc(Cn2c(=O)c3cccn3c3cccnc32)cc1 | -26% | ?
O=C(NCCc1ccccc1)c1ccc2nc(N3CCCCC3)sc2c1 | -8% | -13%
Cc1ccccc1CSc1nccn1-c1ccccc1 | -25% | .
CCOC(=O)c1cc2sc(C)cc2n1CC(=O)NCCc1ccccc1 | -11% | ?

Remaining list, next part
SMILES | Vaccinia Venus | Vaccinia mCherry
Cc1ccc(C)c(OCC(=O)O/N=C(\N)c2ccccn2)c1 | -17% | -23%
CCOc1ccccc1Nc1ccc(C(=O)O)cc1N | 3% | -28%
O=C(Nc1ccc(C(=O)N2CCC(N3CCCC3)CC2)cc1)c1ccc(Br)o1 | -10% | -3%
CCS(=O)(=O)N1CCCC(C(=O)NCCCOC(C)C)C1 (stereo not drawn) | -16% | .
COCCCNC(=O)CSC1=Nc2ccccc2C2=NC(CCC(=O)NCc3ccc(OC)cc3)C(=O)N12 (stereo not drawn) | -8% | -5%
COc1ccc(CCN(C)C(=O)c2cc(S(=O)(=O)NCc3ccccc3)ccc2C)cc1OC | -14% | i
COc1cc2nc(C3CC3)n(NC(=O)c3ccc(F)cc3)c(=O)c2cc1OC | -12% | -1%
CCCCCCN1C[C@@H](O)[C@H](n2cc(COC(=O)c3ccccc3)nn2)C[C@@H]1c1ccccc1 | -4% | i
CNC(=O)C(=O)N/N=C/c1ccccn1 | -9% | i
Cc1ccc(/C=C/C(=O)NC(C)c2ccccc2)cc1 (stereo not drawn) | -21% | -22%
Nc1cc(=O)[nH]n1C1CCN(c2ccccc2)CC1 | -1% | -6%
COc1ccc(/C=N/Nc2nc(-c3ccc(C)cc3)c(C#N)c(=O)[nH]2)cc1 | -15% | -13%
CCOc1cc(S(=O)(=O)Nc2ccc(Cl)cn2)ccc1F | -14% | .
O=C(Cn1nc(-c2ccccc2Cl)ccc1=O)Nc1ccccc1-c1ccccc1 | -14% | -18%
CC(=O)Oc1cccc(N2C(=O)CC(Nc3ccc(N4CCOCC4)cc3)C2=O)c1 (stereo not drawn) | -26% | .
CCc1csc(CCNC(=O)C2CCC(=O)N(Cc3cccc(C(F)(F)F)c3)C2)n1 (stereo not drawn) | -16% | -2%
Cc1ccc(C(=O)Nc2ccc(NC(=O)c3cccs3)cc2)cc1C | -7% | -6%
NC(=O)C1CCN(C(=O)c2ccc(-c3ccccc3Cl)o2)CC1 | -25% | i
COc1ccc(CC(=O)NCCc2sc(-c3cccc(F)c3)nc2C)cc1 | -3% | 9%
Cc1nc2ccc(NC(=O)c3ccc(S(=O)(=O)N(C)C)cc3)cc2s1 | -11% | -10%
CCOc1ccc(C(=O)NCCCn2ccnc2)cc1 | 1% | -12%
CC(=O)OC(C(=O)NCCc1ccccc1)c1cccnc1 (stereo not drawn) | -4% | -18%
Cc1ccc(C(=O)N/N=C/c2ccc(OC(=O)c3ccccc3Cl)cc2)cn1 | -10% | -19%
CCc1ccccc1NC(=O)c1cc([N+](=O)[O-])ccc1N1CCOCC1 | -5% | i
O=C(c1cc2cc(Br)ccc2o1)N1CCOCC1 | 1% | i

The results go on:
SMILES | Vaccinia Venus | Vaccinia mCherry
C[C@]12CCCCC1=CC(=O)C1C2CC[C@@]2(C)C1C[C@@H](F)[C@@H]2O (stereo partly drawn) | -4% | -4%
CC1CCc2c(sc(NC(=O)CSc3nnc(-c4ccccc4)o3)c2C#N)C1 (stereo not drawn) | -4% | -20%
COc1ccc(C(=O)OCC(=O)N2CCCCC2)cc1[N+](=O)[O-] | -13% | i
CC(=O)c1nccs1 | -9% | -13%
COC(=O)c1[nH]c(C)c(/C(O)=C2\C(=O)C(=O)N(CCN(C)C)C2c2ccccc2OC)c1C (stereo not drawn) | -10% | .
O=C(CSc1nc2c([nH]c3ccccc32)c(=O)n1-c1ccccc1)N1CCc2ccccc21 | -7% | -5%
Cc1ccc(C(=O)CN(C(=O)c2ccc(Cl)cc2)N2C(=O)CCC2=O)cc1 | 6% | -9%
CCOc1ccccc1C(C(=O)NCCOC)N(CCOC)C(=O)Cn1nnc2ccccc21 (stereo not drawn) | 3% | -1%
COC(=O)Cn1cnc2c(Cl)nc(F)nc21 | 0% | -9%
C/C(=N/N=C(/N)SCc1ccccc1)C(C)(C)C | -8% | -1%
CC1(C)CC(=O)C=C(NNC(=O)c2ccc(N)cc2)C1 | -8% | i
CCOC(=O)Cc1csc(NC(NC(=O)OCC)(C(=O)OCC)C(F)(F)F)n1 (stereo not drawn) | -10% | -15%
O=C(Cc1ccccc1)Nc1c(Cl)ccc2nsnc12 | -2% | -17%
O=C(Nc1cc([N+](=O)[O-])ccc1F)c1ccc2ccccc2c1 | ? | -10%
CC1CCCC(NC(=O)COC(=O)[C@@H](NC(=O)c2ccc(F)cc2)C(C)C)C1C (stereo partly drawn) | -17% | -18%
Cc1ccnc(NC(=O)CCC(=O)N(CC(=O)NCc2ccc(F)cc2)c2ccc(F)cc2)c1 | 4% | 3%
Cc1ccc(C)c(N2CCN(C(=O)CN3C(=O)COc4ccc(S(=O)(=O)N5CCCCCC5)cc43)CC2)c1 | -21% | -20%
Cc1sc(NC(=O)/C=C/C(=O)O)c(C(N)=O)c1-c1ccc(C(C)(C)C)cc1 | ? | ?
CCCOc1ccc(N2C(=O)C3ON(c4ccccc4)C(c4ccc(O)c(OC)c4)C3C2=O)cc1 (stereo not drawn) | -12% | 3%
COC(=O)c1ccc(C(=O)Nc2nc3cc(N)c(C)cc3s2)cc1 | -10% | -16%
COc1ccccc1CNC(=O)c1cc2cccc3c2n1CC(C)S3 (stereo not drawn) | -19% | ?
Cc1cc(OCC(=O)OCC(=O)c2c(N)n(C)c(=O)n(C)c2=O)ccc1Cl | 1% | -14%
CC(=O)N1CCN(c2nc3cc(C)ccc3cc2CN(C(=O)c2cccc3ccccc23)C2CC2)CC1 | -5% | -17%
Cc1ccc(CNc2nc3cc(-c4ccccc4C)sc3c(=O)n2C)c(C)c1 | -12% | -5%
CC(C)[C@H](CN1CCC[C@H]1CN1C(N)=NC[C@H]1C(C)C)N1C[C@@H](Cc2ccccc2)N(CCCC2CCCC2)C1=N | -5% | -3%

Other results follow:
SMILES | Vaccinia Venus | Vaccinia mCherry
C[C@@H]1CN([C@@H](C)CO)C(=O)CCCn2nncc2CO[C@H]1CN(C)Cc1ccncc1 | -9% | -13%
Cc1ccc(N2CC(NC(=O)c3cccc(Cl)c3)CC2=O)cc1C (stereo not drawn) | -8%[7.34 µM] | 0%[7.34 µM]
Cc1cc(NC(=O)CCC(=O)N(Cc2ccco2)C2(C(=O)NC3CCCC3)CCCCC2)no1 | -1% | -9%
COc1cccc(C2=CC(c3ccccc3F)n3ncc(C(=O)Nc4ccc(F)cc4)c3N2)c1 (stereo not drawn) | -16% | ?
Nc1nn(-c2cccc(F)n2)cc1-c1ccc(Cl)cc1 | -7% | -9%
COc1cc(NC(=O)C2=CC(c3cccs3)=NS(=O)(=O)N2C)cc(OC)c1OC | -5% | -9%
O=C(COC(=O)c1cccc(-n2cnnn2)c1)Nc1c(Cl)cccc1C(F)(F)F | -12% | 0%
CCCCCCCC/C=C\CCCCCCCC(=O)OCC(CO)OC(=O)CCCCCCC/C=C\CCCCCCCC (stereo not drawn) | -10%[3.33 µM] | -16%[3.33 µM]
CC(C(=O)N1CCCc2ccccc21)N1C(=O)c2ccccc2C1=O (stereo not drawn) | -3% | i
Cc1csc2nc(O)c(C(=O)NCCCc3ccccc3)c(=O)n12 | -14% | -13%
O=C(NCCCN1CCCC1=O)c1cccs1 | -7% | -6%
COc1ccc(NC(=O)Cn2nnc(C(=O)NCc3ccccc3Cl)c2N)cc1Cl | -10% | i
O=C(COC(=O)c1cc(=O)[nH]c2ccc(Br)cc12)c1ccccc1 | -13% | i

Entries of single compounds, looked up by structure. Screens in order: Vaccinia Venus | Vaccinia mCherry
COc1cc(NC(=O)C2=CC(c3cccs3)=NS(=O)(=O)N2C)cc(OC)c1OC is listed with -5% | -9%
O=C(c1ccc(F)cc1)N1CCC(C(=O)N2CCN(Cc3ccc4c(c3)OCO4)CC2)CC1 is listed with -20% | i
